Lassa entry inh: blocks Lassa virus binding to or entry into cells; hit rate 1.2% among 300,000; Lassa virus pseudotype entry inhibition, cell reporter; control for the full effect not named in the record; Potency, µM (doses to about 37.9 µM), inactives show at the highest dose activity change, negative = inhibition, most hits filed as inhibitors; active means well fitted inhibition curve with a large enough effect; inconclusive means small, poorly fitted or top-dose-only effect, or effect the other way; inactive means flat fitted curve, though single readings scatter; tested in HEK293 cells; further: on the % scale 0 is the no-effect control and ±100 the full control effect; nearly all actives have a fitted effect of over 50% in size; luciferase read-out
Cruzain inh noDet: cruzain (T. cruzi) inhibition without detergent | purified cruzain, Z-FR-AMC fluorescence, no detergent | P25779 | Potency, µM, inactives show max response, negative = inhibition, most hits filed as inhibitors | hit rate 2.3% among 200,000 | AID 1476;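 further: plate controls were enzyme without inhibitor for no effect and buffer without enzyme for full effect; nearly all actives have a fitted effect of over 40% in size; top concentration of the series not given in the record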
Target sequence (P25779 123-467 limits assumed): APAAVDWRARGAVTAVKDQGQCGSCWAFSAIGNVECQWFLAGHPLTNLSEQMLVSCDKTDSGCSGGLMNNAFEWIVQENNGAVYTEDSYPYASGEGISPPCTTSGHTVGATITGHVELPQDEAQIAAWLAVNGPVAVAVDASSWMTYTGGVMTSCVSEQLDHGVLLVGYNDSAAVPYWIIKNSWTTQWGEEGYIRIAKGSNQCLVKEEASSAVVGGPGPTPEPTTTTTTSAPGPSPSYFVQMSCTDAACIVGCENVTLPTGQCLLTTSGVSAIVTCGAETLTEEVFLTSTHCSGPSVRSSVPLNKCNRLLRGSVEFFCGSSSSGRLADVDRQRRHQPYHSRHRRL
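Detergent-free condition (0.00005% Triton X-100) in acetate buffer pH 5.5 with DTT. 1.5 nM enzyme and compound were pre-mixed 15 min, then 2 uM Z-FR-AMC substrate added; reaction progress from fluorescence change between first and third reads (60 s).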
MARV entry inh: blocks Marburg virus binding to or entry into cells. Marburg virus pseudotyped entry inhibition, cell reporter; control for the full effect not named in the record; about a third of the inactives were read at about 46 µM. Potency, µM (series often up to 37.8 µM), for inactives: at the highest dose activity change, negative = inhibition, actives largely listed as inhibitors. hit rate 1.8% among 300,000; active = well fitted inhibition curve with a large enough effect; inconclusive = small, poorly fitted or top-dose-only effect, or effect the other way; inactive = flat fitted curve, though single readings scatter; tested in HEK293 cells; about a fifth of its hits are not listed in these tables; further: on the % scale 0 is the no-effect control and ±100 the full control effect; luciferase read-out
RE007 growth inh: less growth of the S. pombe RE007 Vpr strain; S. pombe RE007 Vpr strain, BacTiter-Glo ATP luminescence, 24 h; control for the full effect not named in the record; Potency, µM (series often up to 92.2 µM), without a hit: at the top dose activity change, negative = less growth; hit rate 0.21% among 360,000; AID 651644; active = well fitted falling curve with a large enough effect; inconclusive = small, poorly fitted or top-dose-only effect; inactive = no such curve, though single readings can be large or run the other way;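 further: on the % scale 0 is the no-effect control and ±100 the full control effect; nearly all actives have a fitted effect of over 50% in size; the assay follows cell death caused by Vpr and the record does not say whether a fall means rescue or toxicity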
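Fission yeast strain RE007, carrying one chromosomally integrated HIV-1 vpr copy, was seeded at OD 0.01 in PMG+AL medium with 23 nL pinned compound. After 24 h at 30 °C and 99% humidity, viability was read by BacTiter-Glo luminescence.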
Cruzain inh Det: inhibitors of Trypanosoma cruzi cruzain with detergent; purified cruzain, Z-FR-AMC fluorescence, 0.01% Triton; Potency, µM, for inactives: max response, negative = inhibition, usual class: inhibitors; hit rate 0.43% among 200,000; AID 1478;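 further: plate controls were neutral wells for no effect and buffer without enzyme for full effect; nearly all actives have a fitted effect of over 40% in size; top concentration of the series not given in the record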
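Steps: dispense cruzain (1.5 nM final) in acetate buffer pH 5.5 with DTT and 0.01% Triton X-100; pin-transfer compounds; incubate 15 min RT; add Z-FR-AMC (2 uM final); read fluorescence every 30 s, using the 60 s intensity change.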
StopGo reporter: FMDV 2A StopGo reporter, luciferase signal | hit rate 1.2% among 410,000 | human cells with a luciferase reporter of 2A StopGo recoding; control for the full effect not named in the record | Potency, µM (titrated, usually from 57.9 µM), for inactives: at the top dose signal change, negative = less light; active = well fitted falling curve with a large enough effect; inconclusive = small, poorly fitted or top-dose-only effect; inactive = no such curve, though single readings can be large or run the other way; tested in HEK293T cells; further: on the % scale 0 is the no-effect control and ±100 the full control effect; nearly all actives have a fitted effect of over 45% in size; luciferase light after 4 h
NS1 function inh: blocks influenza NS1 protein function; S. cerevisiae slowed by influenza A NS1, growth recovery by OD600; Potency, µM (doses to about 46.1 µM), without a hit: at the top dose activity, positive = more growth; AID 2326; hit rate 0.4% among 270,000; active means well fitted rising curve with a large enough effect; inconclusive means small, poorly fitted or top-dose-only effect; inactive means no such curve, though single readings can be large or run the other way; further: nearly all actives have a fitted effect of over 50% in size
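A cell-based growth assay was used: compounds that relieve NS1-induced slow growth of budding yeast raise OD600. Assay medium was yeast nitrogen base with ammonium sulphate and -URA supplement, pH 6.0, with 2% galactose.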
SARS PLP yeast: blocks SARS-CoV papain-like protease in a yeast assay | S. cerevisiae expressing SARS-CoV PLpro, growth rescue; control for the full effect not named in the record | Potency, µM (top dose mostly 32.9 µM), inactives show at the top dose activity, positive = growth rescue | hit rate 0.19% among 330,000 | AID 485353; active means well fitted rising curve with a large enough effect; inconclusive means small, poorly fitted or top-dose-only effect; inactive means no such curve, though single readings can be large or run the other way; further: 0% is about no effect; nearly all actives have a fitted effect of over 55% in size; growth read by luminescence after 48 h
* marks the source's active call; other numbers are inactive results; u = inconclusive; x = no result given; & = joins results of further samples; [ ] = another dose, or the depositor's remark. Unless noted, the call rests on the fitted dose curve; in most records, active means well fitted curve in the direction sought with a large enough effect; inconclusive means small, poorly fitted or top-dose-only effect, or another doubt; inactive means no such curve, though single readings can be large; an effect the other way counts as inactive or inconclusive. Potency means the concentration at half of the fitted maximal effect. Compounds as they come, and some 4.5% of all compounds hit somewhere here.

SMILES | Lassa entry inh | Cruzain inh noDet | MARV entry inh | RE007 growth inh | Cruzain inh Det | StopGo reporter | NS1 function inh | SARS PLP yeast
Cc1[nH]c2ccccc2c1SCC(=O)N1CCOCC1 | 4% | 15% | 0% | -14% | 9.8% | -15% | -81% | -2%
O=C(Nc1ccncc1)Nc1ccc(Cl)cc1Cl | u | x | -18%[46.1 µM] | 1% | x | -15% | -10% | 6%
Cc1ccc(NC(=O)c2ccc(-n3cccn3)c([N+](=O)[O-])c2)cc1C | 12% | -6% | 1% | -18% | -3.5% | -11% | -1% | 5%
NC(=O)NN=C1C2CCCC1C(c1ccccc1)NC2c1ccccc1 (stereo not given) | u | x | 2% | 4% | x | -11% | -48% | -3%
C1CC(CN2CCOCC2)CN(Cc2nc(CC3CC3)no2)C1 (stereo not given) | 6%[46.1 µM] | x | 9%[46.1 µM] | 4% | x | 4% | 2% | -2%
COc1ccc(NC(=O)c2cc3c(=O)[nH]c4ccccc4c3n2C)cc1Cl | -5%[46.1 µM] | -3% | 4%[46.1 µM] | x | -0.5% | 0% | x | x
O=C(Nc1ncccc1O)c1ccc(C(=O)c2ccccc2)cc1 | 1% | x | -22% | u | x | 40%[activator] | x | -4%
O=C(Nc1cnccn1)Nc1cccc(Cl)c1Cl | -1% | x | 6%[46.1 µM] | 2% | x | 30%[activator] | x | 1%
CCOc1cc(N2CCOCC2)c(OCC)cc1NC(=O)CC12CC3CC(CC(C3)C1)C2 | u | u | u | -20% | -1.5% | -9% | 27% | -3%
CCOc1ccc(NC(=O)c2sc3nc(C)nc(N4CCOCC4)c3c2C)cc1 | -15%[46.1 µM] | x | -19%[46.1 µM] | -11% | x | -6% | 4% | -14%
Cc1cnc(NC(=O)CSc2nnc(-c3ccccc3)n2Cc2ccccc2)s1 | -8% | 2% | -7%&-7% | -10% | -5.0% | u | 2% | 2%
O=S(=O)(NCc1nnc2ccccn12)c1ccc(F)cc1 | 1%[46.1 µM] | x | -6% | -28% | x | -3% | x | 4%
Cc1ccc(S(=O)(=O)NCc2ccc(N3CCN(C(=O)OC(C)(C)C)CC3)cc2)cc1 | -15%[46.1 µM] | x | -13%[46.1 µM] | -5% | x | 28µM* | -13% | -1%
S=C(NCc1ccco1)Nc1ccc(Cl)cc1 | -13% | 1% | -17% | 6% | -9.7% | 70%[activator] | -8% | u
CC1(C)OC(=O)C(=NNc2ccc(O)cc2)C(=O)O1 | 3% | -6% | u | -12% | -3.8% | 0% | -117% | u
Cc1cc(C)c2c(CN3CCOCC3)cc(=O)oc2c1 | x | x | x | -6% | x | 1% | -7% | -3%
O=C(Nc1ccc(CCC(=O)N2CCCC2)cc1)c1ncn[nH]1 | 3% | 2% | 10%[46.1 µM] | 17% | 0.9% | 24% | -2% | 3%
COc1ccc2cc(C3CC(c4ccco4)=NN3S(=O)(=O)c3ccccc3)c(Cl)nc2c1 (stereo not given) | u | u | u | -1% | -3.2% | -4% | u | -4%
CCc1nc(SCc2ccc(C(=O)OC)o2)n[nH]1 | u | x | -3%[46.1 µM] | 15% | x | 4% | 13% | 0%
CCCCN(C)C(=O)C1CCC(Cn2c(=O)[nH]c3ccsc3c2=O)CC1 (stereo not given) | 6%[46.1 µM] | 20% | x | x | -1.0% | 1% | x | x
O=S(=O)(NCCc1c[nH]c2ccccc12)c1ccccc1 | -11% | x | -6% | 54% | x | 47%[activator] | 1% | -1%
CC1(C)Oc2ccc3ccc(=O)oc3c2/C(=C/Nc2ccccn2)C1=O | 22% | u | 8% | 2% | -8.7% | -13% | 1% | -2%
O=C1NC(=NCc2ccccc2)NC1(c1ccccc1)c1ccccc1 | 23%[46.1 µM] | x | u | 2% | x | 9% | x | x
Nc1nc(SCC(=O)c2cccc([N+](=O)[O-])c2)n[nH]1 | 3% | -3% | 6% | 7% | -6.8% | -17% | 9% | 18%
COC(=O)c1ccc(C(=O)NC2CCCc3c2cnn3-c2ccc(C)c(C)c2)cc1 (stereo not given) | u | x | u | 8% | x | u | -9% | 2%

Continuation.
SMILES | Lassa entry inh | Cruzain inh noDet | MARV entry inh | RE007 growth inh | Cruzain inh Det | StopGo reporter | NS1 function inh | SARS PLP yeast
COc1ccc(NC2CCCN(Cc3cccc4cnccc34)C2)cc1OC (stereo not given) | x | x | x | 8% | x | 0% | -3% | -8%
CS(=O)(=O)N(CC(=O)Nc1ccccc1C(=O)NCc1ccco1)c1ccccc1F | 14% | x | 1%[46.1 µM] | 4% | x | 18% | 1% | -1%
Cc1ccc([N+](=O)[O-])cc1NC(=O)CCc1ccccc1 | -17% | x | -23%[46.1 µM] | 10% | x | -13% | x | -3%
Cn1c(=O)c2c(nc(CN3CCN(c4ccc(F)cc4)CC3)n2CCN2CCOCC2)n(C)c1=O | x | x | x | -2% | x | -22% | -1%&0% | -1%
COC(=O)c1nc(C(=O)OC)c(C(=O)OC)nc1C(=O)OC | 12% | -2% | 0%[46.1 µM] | 7% | 3.7% | -8% | 2% | -18%
O=S(=O)(Nc1nc2ccccc2nc1-[n+]1ccccc1)c1ccc(Cl)cc1 | 10% | -6% | -5% | 10% | -6.4% | 22% | -5% | 12%
O=[N+]([O-])c1c(Nc2ccccc2O)cc(N2CCOCC2)c2nonc12 | x | x | x | 15% | x | 0% | -8% | 0%
CC(=O)c1ccc(N2C(=NC(=O)CCc3ccccc3)SC3CS(=O)(=O)CC32)cc1 (stereo not given) | x | x | x | 6% | x | -17% | 1% | 2%
C[N+](C)(C)CCc1ccc(O)cc1 | x | x | x | -4% | x | 0% | 9% | 1%
CC(C)CC(=O)c1c[nH]c(C(=O)NCc2cccs2)c1 | u | -26% | -1% | -7% | 5.8% | 14% | -8% | 2%
Cc1ccc(CNC(=O)c2cc3cc(Br)ccc3oc2=N)cc1 | x | x | x | -17% | x | -6% | 0% | -4%
Cc1ccccc1N1C(=O)C(Cl)=C(N2CCOCC2)C1=O | x | x | x | 8% | x | 1% | 21% | 1%
Cc1noc(N)c1C1(O)C(=O)Nc2c(Cl)cc(Cl)cc21 (stereo not given) | -23%[46.1 µM] | x | 4%[46.1 µM] | -12% | x | -14% | 5% | -2%
CCOc1ccccc1NC(=O)CN1CCCCCC1 | 6% | x | 3% | -5% | x | -9% | -13% | 5%
COc1ccc(CCN2C(=S)NC3CC2(C)Oc2ccc([N+](=O)[O-])cc23)cc1OC (stereo not given) | u | 4% | u | -2% | -2.4% | 25µM* | 7% | 6%
COCCNS(=O)(=O)c1cccn1-c1ncc(C(F)(F)F)cc1Cl | -1% | -19% | u | 5% | 3.3% | -3% | 7% | 6%
COc1ccc(CCNS(=O)(=O)c2ccc3c(c2)OCCO3)cc1OC | -26% | -4% | 12% | 4% | -3.7% | -3% | -5% | 0%
COc1cccc(CC(=O)OCC(=O)Nc2nnc(-c3ccccc3)o2)c1 | -7% | x | 9% | 1% | x | -15% | x | -1%
O=C(Nc1nc(-c2ccc(Br)cc2)ns1)c1ccccc1F | 1%[46.1 µM] | u | u | x | -1.4% | 27% | x | x
CC1CCCCC1NC(=O)CN(C)S(=O)(=O)c1ccc2c(c1)c(=O)n(C)c(=O)n2C (stereo not given) | x | x | x | 9% | x | 37%[activator] | 0% | 12%
c1coc(CNc2c3c(nc4ncnn24)CCC3)c1 | -1% | -16% | 10% | -6% | -1.6% | -18% | 2% | 17%
CCC(=O)N1CCc2cc(Br)cc(S(=O)(=O)NCc3ccccc3)c21 | -3%[46.1 µM] | 4% | 5%[46.1 µM] | x | -3.0% | 80%[activator] | x | x
CCOC(=O)/C(C#N)=C(\N)C(C)C(=O)Nc1ccccn1 (stereo not given) | 6% | 2% | u | 2% | 2.2% | -17% | 3% | 0%
O=S(=O)(NCC1CCCO1)c1ccc(NS(=O)(=O)c2ccc(F)cc2)cc1 (stereo not given) | 12%[46.1 µM] | x | 10%[46.1 µM] | -7% | x | 18% | -5% | 0%
CCOc1ccc(-n2c(=O)cc(N3CCN(c4ccc(F)cc4)CC3)[nH]c2=O)cc1 | 47%[14.3 µM] | -28% | u | 7% | 4.3% | -14% | 0% | 9%

(further entries)
SMILES | Lassa entry inh | Cruzain inh noDet | MARV entry inh | RE007 growth inh | Cruzain inh Det | StopGo reporter | NS1 function inh | SARS PLP yeast
O=C(Nc1nc(-c2ccc(F)cc2)cs1)c1cnccn1 | 2% | -1% | 8% | -1% | -4.5% | 14% | 14% | 27%
Cc1ccc2nc(-c3ccccc3O)c(Nc3ccc4c(c3)OCCO4)n2c1 | 15% | -4% | u | -13% | -8.8% | -2% | 19% | -3%
O=C(NC(NC1CCS(=O)(=O)C1)C(=O)c1cccs1)c1ccccc1 (stereo not given) | 1% | -11% | 4% | 12% | 1.4% | -5% | 10% | 2%
CC1CN(C(=O)c2ccc(COc3ccc4ccccc4c3)o2)CC(C)O1 (stereo not given) | x | x | x | -11% | x | 43%[activator] | -6% | 0%
O=C(c1ccc(S(=O)(=O)Cc2cc(F)ccc2F)c([N+](=O)[O-])c1)N1CCCC1 | 7% | x | u | -15% | x | 0% | x | -13%
Cc1ccc(O)c(C(=O)c2cnc3onc(-c4ccc(F)cc4)c3c2)c1 | 0% | 13µM* | -20% | -19% | -4.0% | -27% | 0% | -17%
COc1ccc(NS(=O)(=O)c2cc(NC(=O)c3cnccn3)ccc2OC)cc1Br | u | x | u | -17% | x | 48%[activator] | x | 1%
O=C(CCN1CCC(c2cccs2)=N1)c1cccs1 | x | x | x | u | x | 43%[activator] | -45% | -3%
Cc1cc(=O)oc2c(C)c(OC(C)C(=O)NCCN3CCOCC3)ccc12 (stereo not given) | 0%[46.1 µM] | x | 12%[46.1 µM] | -5% | x | -13% | 4% | -1%
COCC(=O)N1CCC(n2nccc2NC(=O)c2ccccc2OC)CC1 | 9% | x | 8% | 16% | x | 4% | 24% | 5%
COc1ccc(-n2c(SCC(N)=O)nc3sc4c(c3c2=O)CCC4)cc1 | 7% | x | -3%[46.1 µM] | 4% | x | -24% | 2% | 0%
Cc1cnc(C(=O)NCCc2ccc(C(F)(F)F)cc2)cn1 | -4% | x | 3%[46.1 µM] | 14% | x | 18% | 9% | 0%
Nc1nc(-c2ccccn2)nc(N)c1Cc1ccccc1F | u | x | u | -23% | x | 7% | x | 26%
Nc1c(C(=O)NCCN2CCOCC2)c2nc3ccccc3nc2n1Cc1ccccc1 | 1% | x | u | -1% | x | -23% | 0% | 1%

High-throughput results from PubChem.
